# NPYLR7 agonist = agonists of mosquito NPYLR7 receptor, primary screen, cell-based, Aedes aegypti, calcium fluorescence, mosquito biting behavior | Aedes aegypti neuropeptide Y-like receptor 7 (NPYLR7) | HEK293T NPYLR7/Galpha15, GCaMP6s calcium fluorescence | activation, % at 10 µM | hit rate 0.15% among 270,000; in the data active = activation above about 40%;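 also: 0% = vehicle and 100% = reference agonist at the receptor; some compounds past the cut are filed as inactive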
# NPYLR7 agonist max-min = further read-out of NPYLR7 agonist, marked with its call; activation, %; measured here: Max-Min RFU normalised activation; some inactives read as strong as hits;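 span of the calcium signal over five minutes; 0% = vehicle and 100% = native peptide agonist; compound fluorescence can raise it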
# Active calls of the source: *; & = joins results of further samples. An excerpt, so the mix of outcomes need not match the whole.
SMILES,NPYLR7 agonist,NPYLR7 agonist max-min
CC(c1ccon1)N(C)C(=O)Cn1nnnc1CN1CCc2ccccc2C1 (stereo unspecified),-7,-10
CC(C)(C)c1oc(C(N)=O)cc1CN1CCCC(O)(CO)C1 (stereo unspecified),-1,-3
Cc1cc(CN(C)CC(=O)NCCc2cccc3cccnc23)no1,2,0
CC(=O)NCC1=CCCN(Cc2noc(C(C)(C)C)n2)C1,2,12
CC(=O)OCC(OC(C)=O)C(OC(C)=O)C(OC(C)=O)C(=O)Nc1c(Cl)cc(Cl)cc1Cl (stereo unspecified),2,55
COc1ccc(-n2c(SCc3ccccc3C(F)(F)F)nnc2C2CCCCC2)cc1,-4,-2
CSc1ccc(CN(C)C(=O)C2CCN(c3ccc(C(F)(F)F)cc3[N+](=O)[O-])CC2)cc1,0,-1
CCCNC(=O)Cn1nc2c(c1NC(=O)COc1ccccc1OC)CSC2,-9,-17
CCc1nc2c(OCc3ccc(C(F)(F)F)cc3)cccn2c1N(C)C(=O)C1CC1,-8,-10
COc1cccc(CNC(=O)C2CCN(C(=O)[C@@H]3CCCN3C(=O)Nc3cccc(C(C)=O)c3)CC2)c1,24,30
COc1ncccc1CNC(=O)C1=CC=CN2CCS(=O)(=O)N=C12,0,-1
CC1=C(C(=O)OC(C)C)C(c2ccccc2)NC(=O)N1C (stereo unspecified),6&-4,3&-7
CCN(Cc1nc2ccccc2c(=O)[nH]1)C(=O)CC(C)C,7,2
OCC1(O)CCCN(Cc2ccc(Oc3ccccc3)cc2)CC1 (stereo unspecified),0,13
COc1cccc(CNC(=O)CC2CSc3nc(C(C)C)cc(=O)n32)c1 (stereo unspecified),-2,-4
Cc1ncsc1CCc1nn2c(CC(C)C)nnc2s1,-4,-7
COc1ccc(NC(=O)CSc2nc3c(cnn3CCO)c(=O)[nH]2)c(OC)c1,5,6
CSc1ccccc1NC(=O)Cn1nc(C(F)(F)F)c(Cl)c1C,-14,-18
CC(=O)c1ccc(NC(=O)N2CCCC3CN(C)CCC32)cc1 (stereo unspecified),1,1
COc1ccc(S(=O)(=O)NCC(c2cccnc2)N2CCN(C)CC2)cc1C (stereo unspecified),0,5
CCC(Oc1ccccc1Cl)C(=O)NC1CCC(=O)N(C)C1 (stereo unspecified),-2,0
CCOC(=NCCCN1CCOCC1)NC(=O)c1ccc(C(F)(F)F)cc1,17,28
Cc1cc(OC(C)C(=O)N2CCC(C(=O)Nc3ccccc3)CC2)ccc1Cl (stereo unspecified),8,5
Cc1ccc(C2=NOC(C(=O)NC(Cc3ccccc3)C(=O)NCc3ccncc3)C2)cc1 (stereo unspecified),28,30
Cc1nc(CC(=O)NCCNc2ccncc2C)cs1,2,-2

# Additional structures follow.
SMILES,NPYLR7 agonist,NPYLR7 agonist max-min
CCCN(CCC)C(=O)c1cc(-c2ccc(OC)cc2OC)nn1-c1ccccc1,22,28
CN(Cc1nc2c(s1)CCCC2)C(=O)c1cn(Cc2ccc(F)cc2)nn1,-5,-8
COc1ccc(CN2CCOC(CN(C(=O)c3ccco3)C3CCCC3)C2)c(OC)c1 (stereo unspecified),4,2
O=C(NCCCn1cncn1)C1CCCN(Cc2ccco2)C1 (stereo unspecified),1,-4
Cc1cc(C)nc(Nc2n[nH]c(C)n2)n1,2,1
COc1ccc2nc(Nc3nc(C)c(C)c(=O)[nH]3)nc(C)c2c1,4,1
COc1ccc(CC(=O)NCCNc2cc(-n3nc(C)cc3C)ncn2)cc1,-5,-13
Cn1c(=O)c2c(-c3ccc(C(F)(F)F)cc3)c3c(O)occ3nc2n(C)c1=O,4,4
CCOc1cc(S(=O)(=O)NC2CC(C)(C)NC(C)(C)C2)ccc1Br,0,0
O=C(Cc1ccc2ccccc2c1)NNC(=O)c1ccccc1,2,0
C#CCNC(=O)C(C)Sc1ccc(Cl)cc1 (stereo unspecified),12,5
CC(C)(O)C#CC1(O)CCCCCCCCCCC1,1,-2
CC(=O)Nc1cccc(-c2ccc3c(c2)N(CC2CC2)C(=O)COC3)c1,6,0
Cc1nc(C)c(-c2ccc(SCc3ccc(Cl)cc3)nn2)s1,7,-7
Cc1ccc(F)cc1S(=O)(=O)N1CCC(Cc2ccccc2)CC1,14,-3
Cc1cc(Cl)ccc1S(=O)(=O)NCC1CSCCS1 (stereo unspecified),-4,-11
CN1CCC2(CC1)CN(C(=O)CNC(N)=O)CCCN2C,17,10
Cc1ccc(Nc2nc3nonc3nc2N/N=C\c2ccc(Cl)cc2Cl)cc1C,5,4
COC(=O)c1ccc(C2c3c(oc4ccc(C)cc4c3=O)C(=O)N2c2cc(C)on2)cc1 (stereo unspecified),9,6
Cc1ccc(NC(=O)c2cc3cc([N+](=O)[O-])ccc3oc2=N)cc1,-1,-5
CCN(Cc1cnn(C)c1)C(=O)c1cc(COc2cc(C)c(Cl)c(C)c2)on1,15,2
COCCN(CC(C)C)C(=O)Cc1ccn(C(C)C)n1,7,2
O=C(C1CCC1)N1CCCC(OCc2ccc(F)cc2)C1 (stereo unspecified),-8,-3
Oc1cc2c(cc1CN1CCCC(C(F)(F)F)C1)oc1ccccc12 (stereo unspecified),4,3
O=C(CNc1ccc(-n2cncn2)cc1)NC1(c2ccccc2)CCC1,1,23

# (list continues)
SMILES,NPYLR7 agonist,NPYLR7 agonist max-min
CCN(CC)Cc1cnc2c(C(=O)Nc3cccc4ncccc34)cnn2c1,0,-2
COC(=O)C(c1ccccc1)N(C)C(=O)c1ccnc(C)n1 (stereo unspecified),10,7
CCCC(=O)Nc1ccccc1C1SCC(=O)N1c1ccc(F)cc1F (stereo unspecified),0,10
CCOc1ccc(Cl)cc1NC(=O)N(C)CC1CCCN(C)C1 (stereo unspecified),0,-3
COc1ccc(C2=N/C(=C\C(Cl)=C\c3ccccc3)C(=O)O2)cc1OC,3,-1
COc1nc2ccccc2cc1CN1C[C@H]2OC(=O)N(C3CCCC3)[C@H]2C1,2,3
COc1cccc(C(=O)NC2C3COCC2CN(CC2CCOCC2)C3)c1 (stereo unspecified),21,11
Cn1ccccc1=Nc1cccc[n+]1C,1,-2
CC1=NN(c2ccccc2)C(=O)/C1=C\c1ccc(N(C)C)cc1,-1,-9
O=C(Nc1ccc(N2CCOCC2)nc1)c1ccc(F)cc1Cl,-8,-11
Nc1cccn2cc(-c3ccc(Cl)cc3)nc12,-2,-4
FC(F)(F)c1ccccc1-c1nccn1Cc1cccnc1,30,13
C=CCN1C[C@@H]2C[C@@H](C(=O)NC)N(C(=O)c3cccc4c3OC(F)(F)O4)c3cccc(c32)C1=O,3,13
Cn1c(-c2cccs2)nn(CCNC(=O)c2ccco2)c1=O,1,-2
CC(C)c1cc(C(=O)NCc2cccnc2N2CCCCCCC2)n[nH]1,1,0
Cc1cccc2c(N=NC(=O)c3ccc(O)cc3)c(O)[nH]c12,1,-6
CCc1nc2ccc(C(=O)NCCNC(C)=O)cn2c1N(C)Cc1cccs1,-15,-19
Cc1cccc(-c2nnc(NC(=O)C(NC(=O)Nc3cc(C(F)(F)F)cc(C(F)(F)F)c3)C(C)C)s2)c1 (stereo unspecified),9,2
O=C(O)CC(NC(=O)c1c(F)cccc1Cl)c1ccc(Cl)cc1 (stereo unspecified),-5,-5
COCC(=O)N1CCC(Cc2ccc(C(F)(F)F)cc2)CC1,-1,-7
Cn1c(=O)c2c(nc(NCCOCCO)n2C)n(C)c1=O,4,1
COC(=O)C1C(=O)C(C(=O)OC)C23CC/C=C\CCC12C(C(=O)OC)C(=O)C3C(=O)OC (stereo unspecified),-2,-4
COCCNC(=O)C(NC(=O)c1ccc(OC)cc1)C1CCN(C(=O)C2CCCC2)CC1 (stereo unspecified),7,9
COc1cccc(S(=O)(=O)N2CCN(Cc3cc(=O)c(OCc4ccc(-c5ccccc5C#N)cc4)co3)CC2)c1,1,-5
CCCCc1cnc2c(c1SCc1cccc([N+](=O)[O-])c1)c(=O)n(C)c(=O)n2C,7,11

# Compound profiles, from the list above:
# Record of `Cn1ccccc1=Nc1cccc[n+]1C` = NPYLR7 agonist: 1; NPYLR7 agonist max-min: -2
# Record of `CC1=NN(c2ccccc2)C(=O)/C1=C\c1ccc(N(C)C)cc1` = NPYLR7 agonist: -1; NPYLR7 agonist max-min: -9

# (next part)
SMILES,NPYLR7 agonist,NPYLR7 agonist max-min
Cc1cccnc1CC(C)NC(=O)c1cc(COc2cncc(Cl)c2)on1 (stereo unspecified),-4,-5
CCN(CC)c1nc2sc(C(=O)NC3(C)CCCC3)cc2s1,-1,0
COCCCN(CC(=O)N1CCc2sccc2C1c1ccc(Cl)cc1Cl)C(=O)c1ccco1 (stereo unspecified),-1,1
CNC(=O)C1CCC(Cn2c(=O)c3sccc3n(CC(=O)Nc3ccc(OC)cc3)c2=O)CC1 (stereo unspecified),6,-4
O=C(c1n[nH]c2c1CCC2)N1CCCC2(C1)C(=O)Nc1ccccc12 (stereo unspecified),4,0
C=CCc1ccccc1OC1OC(CO)C(O)C(O)C1NC(C)=O (stereo unspecified),8,13
COc1ccc2c(c1)-c1sc(C(=O)N(C)C)cc1CC2,-3,10
COC(=O)C1=CN(CC2CCCO2)C=C(C(=O)OC)C1c1cccs1 (stereo unspecified),-4,-4
O=C(NCc1ccccc1)N(Cc1ccccc1)[C@@H]1CC[C@@H]2C[C@@H]1[C@@H](O)CO2,13,21
Cc1sc2nc(-c3cccs3)nc(Sc3nnc(C4CC4)o3)c2c1C,4,5
CCc1cccc(NC(=O)CCN2CCN(c3ccncc3)CC2)c1,-2,0
NC(=O)c1ccc(CNC(=O)c2ccc(Cl)s2)o1,5,-9
FC(F)(F)c1ccc(-c2nc(CN(CC3CCOC3)C3CC3)cs2)cc1 (stereo unspecified),6,2
Cc1noc(C)c1CC(C)NC(=O)N1CCOC(c2ccc(F)c(F)c2)C1 (stereo unspecified),7,3
CCCCOc1ccc(-c2nc(C=NC3CCCCC3)c(O)o2)cc1,-1,-4
CN1CCN(c2onc(-c3ccccc3)c2CNCCN2CCOCC2)CC1,11,6
CCC12CC3CC(O)(C1)CC(C(=O)N1CCc4c(nc(C)[nH]c4=O)C1)(C3)C2 (stereo unspecified),5,2
CC1CCN(c2cnn(-c3ccccc3C(=O)O)c(=O)c2Cl)CC1,14,17
CCCCCN=C(N)NN=Cc1c[nH]c2ccc(OC)cc12,46*,40*
CCOC(=O)N1CCC(NC(=O)C2CC23CCN(C(=O)CSc2ccccc2)CC3)CC1 (stereo unspecified),18,9
CC(C)N1CCN(c2ccc(C(=O)c3c(-c4ccc(O)cc4)sc4cc(O)ccc34)cc2)CC1,-2,-2
O=C(c1cc(=O)c2ccccc2[nH]1)N1CCC2(CCCO2)CC1,7,4
COc1ccc(-c2[nH]ncc2CN2CCN(Cc3cccc(C)c3)C(=O)C2)cc1F,20,1
Cc1cc(Oc2cccc(C)c2C)nc(SCc2ccccc2Cl)n1,16,26
COc1ccc(F)c(CN2CCCC3(CCN(C(=O)CCn4cnnn4)C3)C2)c1 (stereo unspecified),3,-2

# Remaining list, next part.
SMILES,NPYLR7 agonist,NPYLR7 agonist max-min
Cc1cn2c3c(=O)n(C)c(=O)n(C)c3nc2n1Cc1ccc(Cl)c(Cl)c1,3,2
C[C@@]12C(=O)N(CCO)c3ccccc3[C@@H]1[C@@H](C(N)=O)CN2C(=O)N1CCOCC1,1,11
COc1ccc(C(C)(C)C)cc1S(=O)(=O)Nc1ccc(-c2cn3ccc(C)nc3n2)cc1,1,-2
Cc1cccc(CO[C@]2(C(=O)NCCN3CCCC3)CC(OCc3ccccc3)[C@H](O)[C@H](O)C2)c1 (stereo partly specified),3,9
CN(Cc1cscn1)C(=O)c1nn(CC2CC2)c2c1CN(C(=O)c1c3c(nn1C)CCCC3)CC2,19,5
CCC(=O)Nc1sc2c(c1-c1nc3ccccc3s1)CCN(CC)C2,28,25
Fc1ccc(C2=Nn3cc(-c4ccccc4)nc3SC2)cc1,8,9
COc1ccccc1OCC(=O)N1CCN(c2ncnc3c2nnn3C)CC1,2,11
CC(NCCn1nc2ccccn2c1=O)c1ccccc1F (stereo unspecified),-3,-4
Cc1ccc(-c2cc(C(=O)NCC(c3cccnc3)N3CCCC3)n[nH]2)o1 (stereo unspecified),2,2
CCc1noc(CN(CC)C(=O)Cc2cnc3c(C)cccn23)n1,12,10
Cc1ccc(C=CC(=O)Nc2nccs2)o1,-15,-24
Cc1cccnc1CCNC(=O)C1CCCN(C2CCN(C(=O)C3CC3)CC2)C1 (stereo unspecified),0,-1
CCN(C)C(=O)C(C1CCCC1)N1CCNCC1 (stereo unspecified),5,6
Oc1ccc2[nH]c(-c3ccccc3)nc2c1CN1CCCCC1,14,9
CCOC(=O)C1CCCN(C(=O)c2cc3n(n2)CCN(Cc2ccccc2F)C3=O)C1 (stereo unspecified),18,27

# Among those listed so far, these have an NH in an aromatic ring:
SMILES,NPYLR7 agonist,NPYLR7 agonist max-min
CCN(Cc1nc2ccccc2c(=O)[nH]1)C(=O)CC(C)C,7,2
COc1ccc(NC(=O)CSc2nc3c(cnn3CCO)c(=O)[nH]2)c(OC)c1,5,6
Cc1cc(C)nc(Nc2n[nH]c(C)n2)n1,2,1
COc1ccc2nc(Nc3nc(C)c(C)c(=O)[nH]3)nc(C)c2c1,4,1
CC(C)c1cc(C(=O)NCc2cccnc2N2CCCCCCC2)n[nH]1,1,0
Cc1cccc2c(N=NC(=O)c3ccc(O)cc3)c(O)[nH]c12,1,-6
O=C(c1n[nH]c2c1CCC2)N1CCCC2(C1)C(=O)Nc1ccccc12 (stereo unspecified),4,0
CCC12CC3CC(O)(C1)CC(C(=O)N1CCc4c(nc(C)[nH]c4=O)C1)(C3)C2 (stereo unspecified),5,2
CCCCCN=C(N)NN=Cc1c[nH]c2ccc(OC)cc12,46*,40*
O=C(c1cc(=O)c2ccccc2[nH]1)N1CCC2(CCCO2)CC1,7,4
COc1ccc(-c2[nH]ncc2CN2CCN(Cc3cccc(C)c3)C(=O)C2)cc1F,20,1
Cc1ccc(-c2cc(C(=O)NCC(c3cccnc3)N3CCCC3)n[nH]2)o1 (stereo unspecified),2,2
Oc1ccc2[nH]c(-c3ccccc3)nc2c1CN1CCCCC1,14,9

# Screens as filed in PubChem.
